Assay outcomes as filed in PubChem BioAssay.
EPAC1 agonist: validation of human EPAC1 agonists; 16,000 tested, 1% active; EPAC1 Rap1b BODIPY-GDP exchange, fluorescence; AID 1645883; O95398; Potency, µM, for the others: max response, positive = active, hits mostly activators; active means well fitted activation curve with a large enough effect; inconclusive means small, poorly fitted or top-dose-only effect; inactive means no such curve, though single readings can be large or run the other way;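 further: nearly all actives have a fitted effect of over 70% in size; series mostly up to about 76 or 150 µM; scaled to a cAMP control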
Target sequence (O95398 whole entry, looked up): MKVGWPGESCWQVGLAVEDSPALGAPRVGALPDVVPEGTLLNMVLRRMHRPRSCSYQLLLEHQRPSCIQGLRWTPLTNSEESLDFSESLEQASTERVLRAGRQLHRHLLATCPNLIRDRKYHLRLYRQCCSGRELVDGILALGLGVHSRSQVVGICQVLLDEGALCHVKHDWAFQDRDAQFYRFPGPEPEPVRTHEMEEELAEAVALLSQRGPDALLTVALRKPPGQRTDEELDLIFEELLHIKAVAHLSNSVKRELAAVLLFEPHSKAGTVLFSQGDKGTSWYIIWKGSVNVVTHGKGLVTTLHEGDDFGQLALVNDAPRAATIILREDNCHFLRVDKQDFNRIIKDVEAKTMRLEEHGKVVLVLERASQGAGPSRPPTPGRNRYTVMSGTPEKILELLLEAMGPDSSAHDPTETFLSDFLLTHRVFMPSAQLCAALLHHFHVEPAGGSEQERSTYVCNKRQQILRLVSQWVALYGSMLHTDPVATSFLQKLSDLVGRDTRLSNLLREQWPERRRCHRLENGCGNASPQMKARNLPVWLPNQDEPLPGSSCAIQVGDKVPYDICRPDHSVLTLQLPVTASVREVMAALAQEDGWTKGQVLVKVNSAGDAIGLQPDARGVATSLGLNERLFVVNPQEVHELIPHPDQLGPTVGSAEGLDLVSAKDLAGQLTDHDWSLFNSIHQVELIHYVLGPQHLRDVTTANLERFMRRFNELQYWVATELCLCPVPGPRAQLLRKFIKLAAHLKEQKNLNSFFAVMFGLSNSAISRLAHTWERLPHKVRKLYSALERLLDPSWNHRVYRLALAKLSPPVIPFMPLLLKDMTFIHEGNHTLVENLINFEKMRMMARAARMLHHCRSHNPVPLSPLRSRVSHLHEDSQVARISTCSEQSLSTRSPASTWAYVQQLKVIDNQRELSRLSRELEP
* = called active by the depositor; ? = inconclusive; & = joins results of further samples; [ ] = remark or other dose. On the % scale 0 is the no-effect control and ±100 the full control effect; potency means the concentration at half of the fitted maximal effect. Not all compounds are listed. The share of hits here may be higher or lower than overall.

SMILES	EPAC1 agonist
Cc1onc(-c2c(Cl)cccc2Cl)c1C(=O)N[C@@H]1C(=O)N2[C@@H]1SC(C)(C)[C@@H]2C(=O)O	-5.7%
CC(C)(O/N=C(\C(=O)N[C@@H]1C(=O)N2C(C(=O)[O-])=C(C[n+]3ccccc3)CS[C@H]12)c1csc(N)n1)C(=O)O	5.0%
COc1ccc(NC(=O)N2CC3(CCN(C(=O)c4cccn4C)CC3)C2)cc1	25.7%
CC(=O)Oc1c(-c2ccccc2)oc2c(CC=C(C)C)c3c(c(OC(C)=O)c2c1=O)C=CC(C)(C)O3	-129.0%[inhibitor]
CCCCCCc1ccc(N2C[C@H](CCCCC)[C@@H](CC(=O)NCc3ccc(OC)cc3)C2=O)cc1	-30.5%[inhibitor]
CC(CCC(=O)O)C1CCC2C3CC[C@@H]4CCCC[C@@]4(C)C3CC[C@@]12C (some centres not stated)	-24.5%
Cc1noc(C)c1-c1nccc(NCc2cccnc2)n1	-16.9%
OC[C@H]1O[C@@H](n2cnc3c(NCc4ccccc4)ncnc32)[C@H](O)[C@@H]1O	8.9%
Nc1nc2c(ncn2C2OC(CO)CC2O)c(=O)[nH]1 (configuration not stated)	15.5%
CC(C(=O)O)C1CCC2C3CC=C4CC(O)CC[C@@]4(C)C3CC[C@]12C (some centres not stated)	-3.8%
COc1ccc(CNc2ccnc(-c3ccccc3OC)n2)c(OC)c1	-25.0%
COc1cccc(C(=O)CC2c3c(c(Br)c4c(c3OC)OCO4)CCN2C)c1 (configuration not stated)	-2.8%
Cn1c(=O)c(-c2cccs2)nc2cnc(N3CCOCC3)nc21	6.6%
COc1ncc2nc(CCc3ccccc3)c(=O)n(C)c2n1	23.8%
CN(C)Cc1ccccc1-c1nc(NC2CCNCC2)c2ccccc2n1	-27.5%
CC(C)(N=NC(C)(C)C(=N)N)C(=N)N	12.4%
Cc1cccc(CN2C[C@H](Sc3ccccn3)C[C@H]2C(=O)Nc2ccc3sc(C)nc3c2)c1	12.0%
Brc1c(Br)c(Br)c2[nH]cnc2c1Br	-9.0%
COc1ccc(CNC(=O)[C@@H]2CC=C[C@@H]3CCN(C4CCCCC4)C(=O)[C@@H]32)cc1	16.4%
Cc1ccc(C(=O)Nc2cccc(-c3nc(CNC(=O)C4CCCCC4)c(C)o3)c2)s1	1.3%
COc1ccc(C(=O)NCc2nc(-c3ccccc3NC(=O)c3cc(C)oc3C)oc2C)cc1F	-9.7%
CC(C)(C#N)c1cc(Cn2cncn2)cc(C(C)(C)C#N)c1	-10.0%
C[C@@H]1CN(Cc2ccc3c(c2)CN(C(=O)c2ccc(Oc4ccccc4)o2)CCO3)C[C@H](C)O1	5.7%
COc1ccc(/C=C/c2cc(OC)c(OC)cc2CC[N+](C)(C)C)cc1	-6.7%
CCNc1ncc2nc(-c3ccc(Cl)cc3)c(=O)n(C3CC3)c2n1	-47.1%[inhibitor]
The list goes on:
SMILES	EPAC1 agonist
COc1c(-c2ccccc2)oc2c(ccc3occc32)c1=O	?
Cc1cccc(CNc2ncnc3ccc(-c4c(C)noc4C)cc23)c1	?
C[C@H]1O[C@@H](O[C@H]2CC[C@@]3(C)[C@H](CC[C@@H]4[C@@H]3C[C@@H](O)[C@]3(C)[C@@H](C5=CC(=O)OC5)CC[C@]43O)C2)C[C@H](O)[C@@H]1O[C@H]1C[C@H](O)[C@H](O[C@H]2C[C@H](O)[C@H](O[C@@H]3O[C@H](CO)[C@@H](O)[C@H](O)[C@H]3O)[C@@H](C)O2)[C@@H](C)O1	-28.7%
O=C(O)c1cc(-c2ccccc2)nc2ccccc12	16.3%&-13.4%
CCCCCCCCN1[C@@H](CC(=O)OCC)c2ccc(C(F)(F)F)cc2S1(=O)=O	-88.9%[inhibitor]
C[C@H](N)CCP(=O)(O)O	-28.3%
COc1ccc(Oc2ncc3nc(-c4ccc(Cl)cc4)c(=O)n(C)c3n2)cc1	25.8%
COc1ccc(OC)c(CN2CCCC(n3cc(C(=O)N4CCCCC4)nn3)C2)c1 (configuration not stated)	19.2%
CC(C)(C)c1ccc(S(=O)(=O)/C=C\C#N)cc1	-8.5%
CCC(CCC(C)C1CCC2C3CCC4CC(O)CC[C@@]4(C)C3CC[C@@]12C)C(C)C (some centres not stated)	-1.0%
COC(=O)N1CCC[C@@]2(CCN(c3ccncc3)C2)C1	3.7%
COc1ccccc1C1CN(CCNC(=O)C2=CCCC2)Cc2ccccc2O1 (configuration not stated)	-7.7%
CCCC(=O)NCCc1c(I)[nH]c2ccc(OC)cc12	-12.3%
COCCn1c(=O)cnc2cnc(N3CCOCC3)nc21	-30.2%[inhibitor]
CN[C@H]1CCc2cc(OC)c(OC)c(OC)c2-c2ccc(OC)c(=O)cc21	-6.9%
CCCCCCCCCCCCCCCC[n+]1ccc(/C=C/c2c[nH]c3ccccc23)c2ccccc21	-120.8%[inhibitor]
COc1cc(-c2c(OC)cccc2OC)cc2c1OCCN(C(=O)CCn1nc(C)cc1C)C2	3.2%
O=C(N[C@@H](Cc1ccccc1)C(=O)CCl)OCc1ccccc1	-6.2%
Cc1cccc(C(=O)O[C@H]2[C@H](Cc3ccccc3)NS(=O)(=O)[C@H]3CC4C=C[C@]23O4)c1	-103.5%[inhibitor]
CCN(CC)CCOc1ccc2c(c1)C(=O)c1cc(OCCN(CC)CC)ccc1-2	14.9%
COc1ccccc1-c1cncnc1-n1ccnc1	-1.1%
CC1=C(C(=O)OCc2ccccc2)N2C(=O)[C@@H](NC(=O)OCc3ccccc3)[C@H]2SC1	?
COc1cccc(-c2cc(NCCc3c[nH]c4ccc(OC)cc34)ncn2)c1	?
COc1cc(CN2CCCC(n3cc(C(=O)N4CCCCC4)nn3)C2)cc(OC)c1 (configuration not stated)	-19.2%
CCCCCCC[n+]1ccc(C)c2ccccc21	-24.3%
More results.
SMILES	EPAC1 agonist
O=C(O)CCNC(=O)c1ccccc1	-21.6%
Nc1cnccn1	22.3%
CCCCC/C=C\CC1OC1CCCCCCCC(=O)O (configuration not stated)	-14.3%
CCCCCCOc1ccccc1C(N)=O	-10.1%
CC(=O)O[C@@H]1CC2CCC1(C)C2(C)C (some centres not stated)	6.3%
C[C@@H](Cc1ccccc1)Nc1ncnc2c1ncn2[C@@H]1O[C@H](CO)[C@@H](O)[C@H]1O	-18.7%
Cc1ccc(SC[C@H](Cc2ccccc2)N2CC[C@@H](NC(=O)OCc3ccccc3)CCC2=O)cc1	-46.2%[inhibitor]
Cc1cc(O)c(C=O)c2c1C(=O)Oc1c(C)c(O)c3c(c1O2)C(O)OC3=O (configuration not stated)	-11.9%
O=c1cnc2cncnc2n1Cc1ccc(F)cc1	-39.3%[inhibitor]
CC(=O)Oc1cc(OC(C)=O)c2c(=O)cc(-c3ccc(OC(C)=O)c(OC(C)=O)c3)oc2c1	-0.6%
CSc1ccccc1C(=O)NCc1nc(-c2cccc(NC(=O)c3ccoc3C)c2)oc1C	8.8%
C/C=C(\C)C(=O)OC1C(OC(=O)C2(C)OC2C)c2cc3ccc(=O)oc3cc2OC1(C)C (configuration not stated)	-48.0%[inhibitor]
CCn1ccnc1C[C@@H]1COc2ccccc2O1	-1.3%
Cc1occc1C(=O)Nc1cccc(-c2nc(CNC(=O)c3cccc(C#CC(C)(C)O)c3)c(C)o2)c1	-4.6%
COc1c(O[C@@H]2O[C@H](CO)[C@@H](O)[C@H](O)[C@H]2O)cc2c(c1OC)-c1ccc(SC)c(=O)cc1[C@@H](NC(C)=O)CC2	0.9%
CC(C)NC(=O)N1CCC2(CC1)CCN(C(=O)c1ccncc1)CC2	-17.2%
COc1ccc(CN2CCC3(CC2)c2ccccc2[C@@H](NC(=O)c2ccccc2)[C@@H]3O)cc1O	13.7%
CC(=O)OC1CC2C(C)(C)C(O)CC(O)[C@@]2(C)C2CC[C@@]3(C)C(=CC(=O)OC3c3ccoc3)[C@]12C (some centres not stated)	-16.9%
CN1C(CCl)Nc2cc(Cl)c(S(N)(=O)=O)cc2S1(=O)=O (configuration not stated)	-8.4%
O=c1c(-c2ccc(O)cc2)coc2cc(O)ccc12	?
CC(=O)N1CCC[C@H]1C(=O)NCC1Cc2cc(-c3cnccn3)cc(Cl)c2O1 (some centres not stated)	4.1%
C[C@@H]1CN(Cc2ccc3c(c2)CN(Cc2cccc(O)c2)CCO3)C[C@H](C)O1	-3.7%
O=C(O)C[C@H]1c2cc(C(F)(F)F)ccc2S(=O)(=O)N1C1CCCCC1	7.4%
O=C(O)c1cc(=O)c2c(OCC(O)COc3cccc4oc(C(=O)O)cc(=O)c34)cccc2o1	-15.1%&29.5%
C[C@@H]1CN(Cc2ccc3c(c2)CN(Cc2cccn2-c2ccccn2)CCO3)C[C@H](C)O1	-12.7%

Molecules above containing a thiophene ring, fused or not, in the order listed:
SMILES	EPAC1 agonist
Cn1c(=O)c(-c2cccs2)nc2cnc(N3CCOCC3)nc21	6.6%
Cc1ccc(C(=O)Nc2cccc(-c3nc(CNC(=O)C4CCCCC4)c(C)o3)c2)s1	1.3%

The list continues:
SMILES	EPAC1 agonist
CC(N)(C(=O)O)c1ccc(C(=O)O)cc1 (configuration not stated)	4.1%&-14.2%
CC(=O)OCC(=O)[C@@]1(O)CCC2C3CCC4=CC(=O)CC[C@]4(C)C3C(=O)C[C@]21C (some centres not stated)	?
CC[C@H](CC[C@@H](C)C1CC[C@H]2[C@@H]3CC=C4C[C@@H](O)CC[C@]4(C)[C@H]3CC[C@]12C)C(C)C (some centres not stated)	-11.5%
Cn1c(SCC2CCCO2)nnc1C1CCN(Cc2ccccc2O)CC1 (configuration not stated)	-10.3%
C[C@@H]1NS(=O)(=O)[C@H]2C[C@@H]3C=C[C@]2(O3)[C@H]1OC(=O)c1ccccc1Br	?
O=C1CCN(Cc2ccccc2)S(=O)(=O)c2ccc(C(F)(F)F)cc21	-20.4%
CN(C)C(=S)SC(=S)N(C)C	-16.0%
COc1cc(CN2CCC3(CCC(CNC(=O)c4cc(C)nn4C)O3)CC2)ccc1F (configuration not stated)	17.7%
O=c1c(-c2ccc(F)cc2)nc2cncnc2n1-c1ccccc1	-10.0%
COc1cc(CNC(=O)CCCC/C=C\C(C)C)ccc1O	-28.2%&-22.4%
COc1cc(CN2CCOc3ccc(C(O)c4cccnc4)cc3C2)cc(OC)c1 (configuration not stated)	7.8%
COC(=O)[C@@H]1C[C@@H](NC(=O)c2ccc(C(F)(F)F)cc2)CN1Cc1cccc(O)c1	7.2%
O=C(CCn1cncn1)NCC1Cc2cc(-c3ccsc3)cc(Cl)c2O1 (configuration not stated)	?
COc1cc(C)c(CN2CCc3nnc(C(C)NC(=O)c4cc(F)ccc4F)n3CC2)cc1C (configuration not stated)	-13.4%
c1cncc(-c2cc(-n3ccnc3)ncn2)c1	8.1%
NCCC(=O)[N-][C@@H](Cc1cnc[nH]1)C(=O)O.[Zn]	16.9%
CCCCC(C=O)NC(=O)C(CC(C)C)NC(=O)OCc1ccccc1 (configuration not stated)	-3.6%
COc1cc(C)c(CN2CCC3(CCC(CNC(=O)c4ccnn4C)O3)CC2)cc1C (configuration not stated)	-5.3%
Nc1nc(SCc2ccc([N+](=O)[O-])cc2)c2ncn([C@@H]3O[C@H](CO)[C@@H](O)[C@H]3O)c2n1	4.6%&-3.0%
C(=C\c1ccc2ccccc2n1)/c1ccc2ccccc2n1	29.2%
COc1ccc(-n2c(=O)cnc3cnc(N4CCOCC4)nc32)cc1	0.3%
O=C(NCO)c1cccnc1	?
COc1ccc(-c2cn(CCc3c[nH]c4ccccc34)nn2)cc1	-23.7%
COC(=O)/C=C/c1ccc2c(c1)S(=O)(=O)N(C1CCCC1)[C@H]2CC(=O)OC	-57.5%[inhibitor]
COc1cccc(Cn2c(=O)c(CCc3ccccc3)nc3cnc(OC)nc32)c1	?
Next entries.
SMILES	EPAC1 agonist
CCCCC(C)(C)[C@H](O)/C=C/[C@H]1[C@H](O)CC(=O)[C@@H]1C/C=C\CCCC(=O)O	2.8%
C#C[C@]1(O)CC[C@H]2[C@@H]3CCc4cc(OC)ccc4[C@H]3CC[C@@]21C	-9.3%
Cn1cccc1C(=O)N1CCC2(CC1)CCN(c1cccc(-c3ccccc3)c1)CC2	-7.3%
CCN(Cc1ccncc1)Cc1ccc2c(c1)CN(C(=O)c1ccc(C)cc1)CCO2	2.3%
Cc1c(N(C)C)c(=O)n(-c2ccccc2)n1C	-33.6%[inhibitor]
COC(=O)/C=C/C(C)=C/C=C/C(C)=C/C=C/C=C(C)/C=C/C=C(C)/C=C/C(=O)O	-31.7%[inhibitor]
Cc1cc(CNC(=O)c2cnn(-c3nccc(-c4cc(C)sc4C)n3)c2C2CC2)on1	6.4%
NC(N)=NCCCC(NC(=O)C(N)Cc1ccc(O)cc1)C(=O)O (configuration not stated)	12.8%
Clc1cccc[n+]1CCCC[n+]1ccccc1Cl	?
OC[C@H]1O[C@@](CO)(O[C@H]2O[C@H](CO)[C@@H](O)[C@H](O)[C@H]2O)[C@@H](O)[C@@H]1O	-16.5%
N#C/C(=C\c1ccc(O)c(O)c1)C(=O)NCCCCc1ccccc1	9.2%
COc1cccc(-c2nccc(NCc3ccc(OC)cc3OC)n2)c1	?
CN1C(CC(=O)c2ccccc2)CCCC1CC(O)c1ccccc1 (configuration not stated)	14.0%
Cc1nn(-c2ccccc2)c(C)c1CC(=O)NCC1Cc2cc(-c3cncnc3)ccc2O1 (configuration not stated)	-13.1%
CC(C)[C@H](N)C(=O)OCCOCn1cnc2c(=O)[nH]c(N)nc21	-17.6%
COCCn1c(=O)c(-c2ccccc2)nc2cnc(N3CCOCC3)nc21	-19.5%

Six records picked at random from those above, as already listed:
SMILES	EPAC1 agonist
Cc1ccc(C(=O)Nc2cccc(-c3nc(CNC(=O)C4CCCCC4)c(C)o3)c2)s1	1.3%
CC(=O)Oc1c(-c2ccccc2)oc2c(CC=C(C)C)c3c(c(OC(C)=O)c2c1=O)C=CC(C)(C)O3	-129.0%[inhibitor]
O=C(O)c1cc(-c2ccccc2)nc2ccccc12	16.3%&-13.4%
Cn1c(SCC2CCCO2)nnc1C1CCN(Cc2ccccc2O)CC1 (configuration not stated)	-10.3%
CC(C)(C#N)c1cc(Cn2cncn2)cc(C(C)(C)C#N)c1	-10.0%
CC(C)NC(=O)N1CCC2(CC1)CCN(C(=O)c1ccncc1)CC2	-17.2%
